Bm FixLJ act: B. multivorans fixK reporter activation | B. multivorans fixK-promoter GFP reporter, 18 h; stronger effect = higher value | z-score (test concentration not listed) | 29,000 tested, 0.3% active;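 active = replicate mean overnight rise in green fluorescent reporter signal, 3 or more SD over negative controls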;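 note: score is relative to vehicle wells of the plate; 300 nL library stock went into each well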
* hit, by the source's call. An excerpt (hit frequency here may not be typical).

structure | Bm FixLJ act
Cn1c(=O)c(=O)n(C)c2cc(S(=O)(=O)CCC(=O)Nc3cccc(C(F)(F)F)c3)ccc21 | 0.46
Cc1c(C)c2c(c(C)c1O)CCC(C)(C(=O)NCCc1nn[nH]n1)O2 (stereo unspecified) | -0.63
CN(C)c1ccc(C(=O)NC2CCC(NC(=O)CCOc3ccccc3)C2)cc1 (stereo unspecified) | -3
COc1ccc(OC)c(/C=C(\C#N)c2nc3ccccc3c(=O)[nH]2)c1 | 1.2
CCCc1nnc(NC(=O)Nc2ccccc2Cl)s1 | 1.2
O=C(CC12CC3CC(CC(C3)C1)C2)NC1CCN(C2CCS(=O)(=O)CC2)CC1 | 0.14
CCc1nc(N2CCC(c3cc(OC)ccc3OC)C2)no1 (stereo unspecified) | -0.28
Cc1cc(C)cc(NC(=O)Cn2c(=O)n(CCC(C)C)c(=O)c3cccnc32)c1 | -0.75
CCOc1ccc(CCNC(=O)Cn2nc(CC)n3c(cc4c(OC)cccc43)c2=O)cc1OCC | 1.9
COc1ccc(CCNC(=O)c2nc(SCc3ccc(C)cc3)ncc2Cl)cc1OC | -1.5
COc1cccc(-c2cnc(NCc3ccccc3Cl)n2C)c1 | -0.6
CCc1ccc(S(=O)(=O)c2nnn(-c3ccc(F)cc3)c2N)cc1 | -0.65
COc1ccc2nc(SCC(=O)c3c(C)[nH]c4ccccc34)nc(C)c2c1 | -0.37
Cc1ccc(CNC(=O)c2nc(S(=O)(=O)Cc3ccc(C)cc3)ncc2Cl)cc1 | -0.82
Cc1oc2ncnc(N3CCOCC3)c2c1C(=O)Nc1ccc(Br)cc1F | 1
Cc1cc(NC(=O)c2ccc(-c3ccc(Br)cc3)o2)cc(-c2nc3ncccc3o2)c1O | -0.08
CC(C)N1CCOC(CC(=O)NCCCc2nc3ccc(Cl)cc3[nH]2)C1 (stereo unspecified) | -3.3
CCCCC1CCC(C(=O)N2CC(=O)Nc3ccc(C)cc3C2c2ccc(F)cc2)CC1 (stereo unspecified) | -0.07
COc1cccc2cc(-c3nnc(-c4ccc(Cl)cc4)o3)c(=O)oc12 | -0.03
CCCCc1ccc(C(=O)c2c(N)c(C(=O)Nc3cccc(OC)c3)c3ccccn23)cc1 | -1.1
CNCC(=O)N1CCC2(CC1)OCCc1c2[nH]c2ccccc12 | 1.2
CSc1ncc(Cl)c(C(=O)N(Cc2ccccc2Cl)C2CCS(=O)(=O)C2)n1 (stereo unspecified) | 1.4
CC(=O)N1c2c(cc(Br)cc2S(=O)(=O)N2CCN(c3ccccc3)CC2)CC1C (stereo unspecified) | -0.1
CC(=O)c1cccc(NC(=O)c2sc3nc4c(cc3c2N)CCCC4)c1 | -0.45
CC(CCc1ccccc1)NC(C)C(O)c1ccc(O)cc1 (stereo unspecified) | -0.03
O=C1C(CCS(=O)c2ccccc2)C(=O)N(c2ccccc2)N1c1ccccc1 (stereo unspecified) | -0.6
COCCNC(=O)c1nn(-c2ccc(C)cc2)c(=O)c2c1c1ccccc1n2C | -1.1
COc1ccccc1CNc1nc2nc(C)c(Cl)c(C)n2n1 | -1.6
C[C@@H](NC(=O)CN(c1ccccc1)S(=O)(=O)N(C)C)c1ccccc1 | -2
N#Cc1ccc(C(=O)NC2CCCN(C(=O)c3ccco3)C2)cn1 (stereo unspecified) | -2.5

In a second layout: results already given
> COc1ccccc1CNc1nc2nc(C)c(Cl)c(C)n2n1
- Bm FixLJ act: -1.6
> CC(CCc1ccccc1)NC(C)C(O)c1ccc(O)cc1 (stereo unspecified)
- Bm FixLJ act: -0.03

Additional records:
structure | Bm FixLJ act
CCn1cc(C(=O)NCc2ccc(F)cc2)c(=O)c2cc(S(=O)(=O)N(C)C)ccc21 | -1.9
COc1ccccc1NC(=O)C1=C(C)Nc2ncnn2C1c1ccccn1 (stereo unspecified) | -1.8
CCN(Cc1cnn(CC)c1)C(=O)c1ccc(-c2cnc(N)cn2)cc1 | -4.7
COc1ccc(CCNC(=O)c2c(O)nc3c(C)cccn3c2=O)cc1OC | -0.42
CCOC(=O)c1ccc(NC(=O)CSc2nnc3c4ccccc4n(CC)c3n2)cc1 | -2.2
CCCN1CCN(C(=O)NC(C)c2nc(-c3ccc(C)cc3)no2)CC1=O (stereo unspecified) | 1
CCn1cc(C(=O)NCCc2ccc(C)cc2)c(=O)c2cc(S(=O)(=O)N3CCC(C)CC3)ccc21 | -2.6
c1cnn(Cc2nnc(C3CCN(c4cnccn4)CC3)n2C2CC2)c1 | -1.7
CC1(C(=O)N2CCC(OCc3cccnc3)CC2)CC12CCNCC2 (stereo unspecified) | -0.61
Cc1c(CC(=O)N2CCCCC2)c(=O)oc2cc3occ(C(C)(C)C)c3cc12 | -0.68
Cc1cc(C(=O)NC2CCN(Cc3ccnc(C(C)C)n3)CC2O)no1 (stereo unspecified) | -0.62
Cc1nc2ccccc2n1CCC(=O)NCc1csc(-c2ncccn2)n1 | -4.1
COc1ccccc1C1C=C(c2ccc(Cl)cc2)Nc2nc(-c3ccc(Cl)cc3)nn21 (stereo unspecified) | -0.25
COc1ccc(OC)c(CCNC(=O)c2cnn(-c3ccccc3)c2-n2cccc2)c1 | -1.5
Cc1cccc(NC(=O)CSc2nnc(N)s2)c1 | -1
COc1ccc(Cn2cc(C(=O)c3ccc(C)c(C)c3)c(=O)c3ccccc32)cc1 | 1.6
Cc1ccccc1Oc1nc2ccccn2c(=O)c1/C=C(\C#N)c1nc2ccccc2[nH]1 | -1.7
Cc1cccc(-c2c3c(=O)n(C)c(=O)n(C)c3cn2-c2cc(N)c(Cl)cc2Cl)c1 | 0.25
COc1cc(-c2nc3ccc(Cl)cn3c2Nc2ccc3c(c2)OCCO3)ccc1O | 1.6
CC1=C(c2ccc(C)c(C)c2)S(=O)(=O)N=C1N1CCC(C(=O)NCc2ccc(Cl)cc2)CC1 | -1.2
CCC1CCCCN1CCCNC(=O)c1cn(C)c2ccc(S(=O)(=O)N(C)C3CCCCC3)cc2c1=O (stereo unspecified) | -1.5
COc1ccccc1CNC(=O)Cn1c(=O)oc2cc(S(=O)(=O)N3CCCC3)ccc21 | 0.13
CCN(Cc1cc(=O)n2c(C)cccc2n1)Cc1nc(C)no1 | 0.19
COc1ccc(CCNC(=O)CCn2c(=O)c3ccccc3n(Cc3ccc(Cl)cc3)c2=O)cc1OC | 0.85
Cc1ccc(C(=O)Nc2cc(-c3nc4cc(Cl)ccc4o3)ccc2C)c(C)c1 | -2
COc1ccc(OC)c(CNC(=O)CSc2c3c(nc4cc(Cl)ccc24)CCCC3)c1 | -1.6
CCOC(=O)c1c(NC(=O)c2cc3ccccc3c(=O)o2)sc2c1CCC(C)C2 (stereo unspecified) | 0.03
CCCn1c(CCC(=O)Nc2cc(C(=O)OC)cc(C(=O)OC)c2)nc2cccnc21 | -1.2
Cc1c(CCC(=O)NCCc2ccccc2)c(=O)oc2cc(O)ccc12 | -2.3
O=C(CSc1ncc(-c2ccccc2)[nH]1)Nc1cccc(C(F)(F)F)c1 | -0.31

Carrying on:
structure | Bm FixLJ act
CCC(C)OC(=O)/C(C#N)=C\c1ccc(-c2cccc(C(F)(F)F)c2)o1 (stereo unspecified) | -0.74
Cc1cccc(-n2c(CC3C(=O)Nc4ccc(C)cc43)nc3ccccc3c2=O)c1 (stereo unspecified) | -1
COc1ccc(C2CC(=O)c3c([nH]c(C(=O)OC4CCCCCC4)c3C)C2)cc1OC (stereo unspecified) | -0.44
N#Cc1cccnc1N1CCC(NC(=O)CC2=CSC3=NCCN23)CC1 | -0.78
CCN(CC)S(=O)(=O)c1ccc2c(c1)N(CC(=O)Nc1cccc(C#N)c1)C(=O)CO2 | -1.5
Cc1ccccc1OCCCn1c(CCNC(=O)C2CCCCC2)nc2ccccc21 | -0.64
CCc1ccc(-n2c(=O)c3c4c(sc3n(Cc3ccc(F)cc3)c2=O)CCCC4)cc1 | 1.5
CCOC(=O)c1ccc(NC(=O)C2CCN(S(=O)(=O)c3ccc(C)cc3)CC2)cc1 | -2.5
CCOc1ccccc1NC(=O)Cn1c(=O)n(CCCC(=O)NCCc2ccc(C)cc2)c(=O)c2ccccc21 | -2.6
CCCCOC(=O)c1ccc(NC(=O)Cc2coc3ccc(C(C)C)cc23)cc1 | 0.33
CCOC(=O)c1ccc(NC(=O)Nc2cc3c(cc2N2CCCCC2)n(CC)c(=O)n3CC)cc1 | 0.18
COc1ccc(CN2CCN(c3ncnc4sc5c(c34)CC(C)CC5)CC2)cc1F (stereo unspecified) | 0.42
CCn1cc(CN(C)C(=O)c2ccc(-c3cccc(OC)n3)cc2)cn1 | 0.94
CCOC(=O)c1c(C)n(S(=O)(=O)c2ccc(C)cc2C)c2ccc(NS(=O)(=O)c3ccc(C)cc3C)cc12 | -0.15
COc1ccc(NC(=O)CN2C(=O)C(c3ccc(C(C)(C)C)cc3)=NC2(C)C)cc1Cl | -0.7

Exported with each value named: two of the compounds above.
CCN(CC)S(=O)(=O)c1ccc2c(c1)N(CC(=O)Nc1cccc(C#N)c1)C(=O)CO2
  Bm FixLJ act: -1.5
Cc1ccccc1OCCCn1c(CCNC(=O)C2CCCCC2)nc2ccccc21
  Bm FixLJ act: -0.64

The list goes on.
structure | Bm FixLJ act
COc1ccc(C(=O)NCCn2cc(SC(C)c3ccccc3)c3ccccc32)cc1OC (stereo unspecified) | 0.8
Cc1cc(C(=O)N2CCN(c3ccc4nccn4n3)CC2)c(C)o1 | -0.25
Cc1cn[nH]c1 | 0.31
Cc1ccccc1C(=O)NC1CCOCC1Oc1ccc(CO)cc1 (stereo unspecified) | -0.72
O=C(Nc1ccc(Cl)cc1)C(NS(=O)(=O)c1cccs1)c1ccccc1 (stereo unspecified) | -2.9
COc1ccc(CNC(=O)c2cc3cc(OC)ccc3oc2=O)cc1 | 0
O=C(O)CN1CCC2(C1)CN(C(=O)c1cnn(Cc3ccccc3)c1)CCO2 (stereo unspecified) | -2
COC(=O)c1sc(N2C(=O)c3oc4cc(C)c(C)cc4c(=O)c3C2c2ccccc2F)nc1C (stereo unspecified) | -1.7
CCOc1ccc(Nc2c(S(=O)(=O)c3ccccc3)cnc3ccc(CC)cc23)cc1 | 2
Cc1ccccc1C(NC(=O)c1cnc(N)nc1C)c1ccncc1 (stereo unspecified) | -1.4
Cc1nc(C)c(C(=O)N2CCC3(CN(C(=O)c4ccc(N)nc4)CCO3)C2)o1 (stereo unspecified) | -0.43
COc1ccccc1Cn1cc(C(=O)c2ccc(C)cc2)c(=O)c2cc3c(cc21)OCCO3 | -1.4
Cc1cc(C)nc(SC(C)C(=O)N2CCC(c3ccn[nH]3)CC2)n1 (stereo unspecified) | -1.1
CCN1CC(C(=O)Nc2ccc(Oc3nn[nH]n3)cc2)CC1=O (stereo unspecified) | 1.8
COc1ccc(CCNC(=O)CSc2nc3ccccc3nc2Cc2ccc(C)cc2)cc1OC | -1.9
Cc1ccc2nc(NC(=O)c3nc(SCc4ccccc4F)ncc3Cl)sc2c1 | 0.72
CCN1C(C(=O)c2ccccc2)=C(OC(=O)C(C)C)c2ccccc2S1(=O)=O | -0.6
CN(C)CCNC(=O)c1ccc2c(c1)N(Cc1ccccc1)C(=O)c1ccccc1S2(=O)=O | -0.36
CC(C)c1ccc(OCC(=O)NC(Cc2c[nH]c3ccccc23)C(=O)O)cc1 (stereo unspecified) | -1.7
CCOc1ccc(CCNC(=O)CN2C(=O)COc3ccc(S(=O)(=O)N(CC)CC)cc32)cc1 | 0.97
Cc1cc(N2CCCCC2)nc2ccc(NC(=O)CCC(=O)N3CCN(c4ccccc4)CC3)cc12 | -0.72
CC(=O)N1CCc2c(nc(-c3cccnc3)nc2NCC(C)(C)C)C1 | 1.4
CC(C)Cn1cc(C(=O)N2CCN(c3cccc(Cl)c3)CC2)c2c3ccccc3n(C)c2c1=O | 0.81
COc1ccc(C(=O)Oc2c(Sc3ccc(C)cc3)c(C)nn2C(C)(C)C)c(OC)c1 | -0.74
COc1ccc(N2CCN(Cc3nc4c(c(=O)[nH]c(=O)n4C)n3CC(C)C)CC2)cc1 | 1.8
COCCCN1CC2(CCC1=O)CCN(C(=O)c1cnc3nc[nH]n3c1=O)CC2 | 0.03
CCOC(=O)c1c(-c2ccc(OC)cc2)oc2ccc(OCc3ccccc3C)cc12 | -0.67
O=C(c1nc2ccc(Cl)cn2c1CN1CC(O)C1)N1CCCCCCC1 | -1.8
O=C1NCCN(C(=O)c2cccc(-c3cnn4ccccc34)c2)C1CCO (stereo unspecified) | -0.86
N#Cc1ccccc1OCC(=O)N1CCN(c2ccccc2F)CC1 | 1.2

Entries above that contain a thiophene ring, fused or not (five):
structure | Bm FixLJ act
CC(=O)c1cccc(NC(=O)c2sc3nc4c(cc3c2N)CCCC4)c1 | -0.45
CCOC(=O)c1c(NC(=O)c2cc3ccccc3c(=O)o2)sc2c1CCC(C)C2 (stereo unspecified) | 0.03
CCc1ccc(-n2c(=O)c3c4c(sc3n(Cc3ccc(F)cc3)c2=O)CCCC4)cc1 | 1.5
COc1ccc(CN2CCN(c3ncnc4sc5c(c34)CC(C)CC5)CC2)cc1F (stereo unspecified) | 0.42
O=C(Nc1ccc(Cl)cc1)C(NS(=O)(=O)c1cccs1)c1ccccc1 (stereo unspecified) | -2.9

Later entries
structure | Bm FixLJ act
Cc1c(CC(=O)NCCc2ccccc2F)c(=O)oc2cc(O)c(Cl)cc12 | -0.74
O=C(O)[C@]12COc3ccccc3C1CN(S(=O)(=O)N1CCOCC1)C2 (stereo partly specified) | 0.75
CC(=O)N1CCc2c(nc(-c3ccncc3)nc2NCCCC(C)(C)CO)C1 | -0.22
COc1ccc(NC(=O)c2nc3nc(C)cc(C(F)F)n3n2)c(C)c1 | -1.9
O=C(NC1COCC1Cc1ccnc2ccccc12)c1cnc(C2CC2)[nH]c1=O (stereo unspecified) | 0.7
COc1ccc(CCNC(=O)Cc2c(C)c3cc(OC)c(OC)cc3oc2=O)cc1 | -2.1
Cc1cc(C(=O)N2CCOC3(CCN(C4CCSC4)CC3)C2)no1 (stereo unspecified) | -3.1
CN(CCCN1CCCCCC1)c1nc(-c2ccncc2)nc2c1cnn2C | -1.8
Cc1c(NC(=O)CC2CCN(Cc3ccccc3)CC2)c(N2CCCC2)nn1C | -2.9
